# PAD4 inh – human PAD4 inhibitors, primary screen, biochemical, fluorescence polarization, 1536-well format. 330,000 tested, 0.41% active. recombinant PAD4, RCA probe fluorescence polarization. AID 485272, 2010. Protein-arginine deiminase type-4 (Homo sapiens), Q9UM07. inhibition, % at 6.36 µM;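 active means percent inhibition above a cutoff equal to the mean of all tested compounds plus 3 SD, cut at about 15% in these data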;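 further: 0% = PAD4 with RCA probe and DMSO and 100% = probe without PAD4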
# Target sequence (Q9UM07 whole entry, looked up): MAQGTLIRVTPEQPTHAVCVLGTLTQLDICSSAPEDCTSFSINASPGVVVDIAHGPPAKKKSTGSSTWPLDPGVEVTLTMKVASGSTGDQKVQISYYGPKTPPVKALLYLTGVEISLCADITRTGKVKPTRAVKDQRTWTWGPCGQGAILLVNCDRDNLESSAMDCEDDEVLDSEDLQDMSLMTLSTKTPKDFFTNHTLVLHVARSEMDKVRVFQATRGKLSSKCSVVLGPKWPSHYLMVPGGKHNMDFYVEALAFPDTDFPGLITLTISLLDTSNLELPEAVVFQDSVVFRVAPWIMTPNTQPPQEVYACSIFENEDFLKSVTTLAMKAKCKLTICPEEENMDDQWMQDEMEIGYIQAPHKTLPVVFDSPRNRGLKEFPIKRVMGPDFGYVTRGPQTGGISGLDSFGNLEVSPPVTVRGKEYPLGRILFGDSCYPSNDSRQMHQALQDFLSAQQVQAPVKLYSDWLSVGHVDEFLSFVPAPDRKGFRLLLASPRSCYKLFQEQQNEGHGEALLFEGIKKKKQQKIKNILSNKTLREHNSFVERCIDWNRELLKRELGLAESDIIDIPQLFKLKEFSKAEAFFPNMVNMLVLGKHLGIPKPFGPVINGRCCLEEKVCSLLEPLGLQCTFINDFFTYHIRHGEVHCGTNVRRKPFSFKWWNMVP
# PAFAH1B2 inh – PAFAH1B2 enzyme inhibitors, primary screen, biochemical, fluorescence polarization, human; inhibition, % at 3.39 µM; recombinant PAFAH1B2, FP-rhodamine activity probe; AID 492953, 2010; 340,000 tested, 1.2% active;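 active means inhibition above the mean of all tested compounds plus 3 SD, cut at about 24% in these data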;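 further: 0% = enzyme with DMSO and 100% = wells lacking PAFAH1B2; many of its hits are not listed in these tables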
# LYPLA2 counter – LYPLA2 inhibitors, primary screen, counter-screen for PME1 inhibitor project, biochemical, fluorescence polarization, FP-Rh probe ABPP; 320,000 tested, 0.38% active; inhibition, % at 5.9 µM; Acyl-protein thioesterase 2 (Homo sapiens), O95372; recombinant LYPLA2; AID 2177, 2009;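 active means inhibition above the screen-wide mean plus 3 SD, limit set per campaign, cut at about 26% in these data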;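 further: 0% = LYPLA2 with DMSO and 100% = wells lacking LYPLA2 enzyme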
# pPAFAH inh – pPAFAH enzyme inhibitors, primary screen, biochemical, fluorescence polarization, human; recombinant pPAFAH, FP-rhodamine probe fluorescence polarization; inhibition, % at 3.39 µM; 330,000 tested, 1.5% active; AID 463082, 2010;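 active means inhibition above the mean inhibition across the screen plus 3 SD, cut at about 25% in these data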;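 further: inhibitors block binding of the rhodamine activity-based probe so polarization drops; 0% = enzyme with DMSO and 100% = wells lacking pPAFAH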
# PAFAH1B3 inh – PAFAH1B3 enzyme inhibitors, primary screen, biochemical, fluorescence polarization, human | AID 492972, 2010 | 340,000 tested, 0.28% active | inhibition, % at 3.39 µM | Platelet-activating factor acetylhydrolase IB subunit alpha1 (Homo sapiens), Q15102 | recombinant PAFAH1B3, FP-rhodamine probe;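 active means inhibition above the screen-wide average of all tested compounds plus 3 SD, cut at about 25% in these data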;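 further: 0% = enzyme with DMSO only and 100% = wells lacking PAFAH1B3 protein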
# PREPL inh – PREPL enzyme inhibitors, primary screen, biochemical, fluorescence polarization | 320,000 tested, 0.68% active | inhibition, % at 5.96 µM | recombinant PREPL, fluorescence polarization activity-based probe; in the data active means inhibition above about 43%;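 further: 0% = enzyme with DMSO and 100% = wells lacking enzyme; many of its hits are not listed in these tables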
# GSTO1 counter – inhibitors of recombinant GSTO1, primary screen, counter-screen for RBBP9 inhibitor project, biochemical, fluorescence polarization; AID 1974, 2009; activity-based probe fluorescence polarization; inhibition, % at 5.96 µM; 300,000 tested, 1.1% active; Glutathione S-transferase omega-1 (Homo sapiens), P78417;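 active means inhibition above the campaign mean inhibition plus 3 SD, cut at about 35% in these data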;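 further: 0% = GSTO1-1 with DMSO and 100% = wells lacking GSTO1-1 enzyme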
# Target sequence (P78417 whole entry, looked up): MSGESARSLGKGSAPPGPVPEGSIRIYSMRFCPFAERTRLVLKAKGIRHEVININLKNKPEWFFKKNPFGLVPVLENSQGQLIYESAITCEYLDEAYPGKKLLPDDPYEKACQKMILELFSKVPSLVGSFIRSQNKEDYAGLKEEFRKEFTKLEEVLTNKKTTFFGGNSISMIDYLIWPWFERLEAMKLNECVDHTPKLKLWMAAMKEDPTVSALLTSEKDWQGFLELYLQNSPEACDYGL
# LYPLA1 inh – LYPLA1 inhibitors, primary screen, counter-screen for PME1 inhibitor project, biochemical, fluorescence polarization, FP-Rh probe ABPP; Acyl-protein thioesterase 1 (Homo sapiens), O75608; recombinant LYPLA1; inhibition, % at 5.9 µM; 320,000 tested, 0.16% active;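 active means inhibition above the mean of all tested compounds plus 3 SD, set per campaign, cut at about 14% in these data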;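 further: inhibitors block serine hydrolase probe labeling of LYPLA1 so polarization falls; 0% = enzyme with DMSO and 100% = wells lacking LYPLA1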
# Numbers without * were called inactive; · = no result given. These rows are one share of the data; the hit share may differ from the screen's.
# Below each compound: PAD4 inh, PAFAH1B2 inh, LYPLA2 counter, pPAFAH inh, PAFAH1B3 inh, PREPL inh, GSTO1 counter, LYPLA1 inh
- S=c1[nH]nc(-c2ccco2)n1-c1ccccc1Cl
    0.8, 1.0, -0.2, 1.3, 5.1, 10.7, 8.5, -0.1
- COc1cccc(CN(C)C(=O)C2CCN(S(=O)(=O)c3cccs3)CC2)c1OC
    -0.1, 0.7, -9.1, -2.2, 6.5, 4.5, ·, -1.9
- O=S(=O)(Cc1cccc(C(F)(F)F)c1)c1ncn[nH]1
    0.4, 2.6, 1.4, -0.6, 0.3, 16.2, 4.3, 1.4
- Cc1ccc(-c2cc(C(=O)N/N=C/c3c[nH]c4ccccc34)n[nH]2)o1
    -0.9, -1.0, 1.1, 17.6, -1.6, 18.5, 1.6, -3.0
- CCN(CC)S(=O)(=O)c1ccc(N2CCCC2)c(C(=O)OCC(=O)/C(C#N)=C(\C)N)c1
    0.0, 5.9, -0.2, 5.3, 1.4, 3.9, 3.8, 1.0
- COc1ccc(S(=O)(=O)N2CCN(C(=O)C3COc4ccccc4O3)CC2)cc1 (stereo not given)
    -0.7, 3.4, -3.5, 4.1, 4.6, 2.8, ·, -1.2
- O=C(Nc1ccncc1)c1ccccc1F
    5.1, 4.7, 4.7, -0.7, -2.6, 10.7, 7.5, -0.3
- COc1ccc(S(=O)(=O)N2CCCCC2)cc1
    -3.5, -1.9, 5.5, 1.5, 6.2, -1.3, -2.2, 2.1
- CCOc1cc(CN2CCN(C(=O)c3cccc4ccccc34)CC2)ccc1OC
    0.8, 1.1, 8.1, 5.3, 8.6, 2.6, 2.1, 2.6
- O=C(CN1c2cccc3cccc(c23)S1(=O)=O)NCc1ccc(Cl)cc1
    -0.7, 8.6, -2.1, -0.9, 3.2, -13.1, ·, -1.1
- CN(C)CCCNC(=S)NCCNc1nc2cc3c(cc2cc1C#N)OCO3
    3.7, 7.1, -11.1, 2.8, 3.3, 14.3, 12.3, -2.0
- CCc1sc(-c2c(C#N)c(N)nc3c2CCCCCC3)cc1[N+](=O)[O-]
    2.0, 1.6, 45.3*, -0.4, -0.7, 1.5, 8.0, 0.3
- Cc1ccc(CNc2nc3ccc(C)cc3n3cnnc23)cc1
    1.1, 5.3, 5.1, -8.0, -3.3, 1.1, -4.0, -0.1
- COc1ccc(OC)c(CN2CCN(C(=O)c3cccc4ccccc34)CC2)c1
    -0.7, 1.5, 2.4, 1.5, 8.3, -9.0, 5.6, 2.6
- Cc1cc(NC(=O)CSc2nnc(C3CC3)n2Cc2ccccc2)no1
    -1.3, 2.9, 2.0, 2.4, 7.6, 2.1, -3.7, 0.0
- COc1ccc(Cl)cc1NS(=O)(=O)c1c(C)nc2sccn2c1=O
    -0.3, 10.0, 5.5, 3.7, 0.7, 5.6, 8.5, -0.9
- C[C@@H](NC(=O)CN1C(=O)c2ccccc2S1(=O)=O)c1ccccc1
    -4.5, 2.2, 5.0, -0.9, 4.4, 8.0, 5.2, -0.7
- CC1CCC2(CC1)NC(=O)N(Cc1nc(-c3ccccc3)no1)C2=O (stereo not given)
    2.4, 7.9, 5.1, -3.3, 2.4, -3.0, -1.5, 1.1
- CC(C)c1ccc2nc3sc(C(=O)N4CCc5ccccc5C4)c(N)c3cc2c1
    -2.9, 4.0, 6.0, 3.6, -5.5, 16.3, -1.0, -2.3
- COc1ccc(CN(C)C(C)C(=O)NC2CCCc3ccccc32)cc1 (stereo not given)
    -8.2, 2.8, -12.9, -6.7, 6.6, 5.3, 8.2, -3.2

# Below each compound: PAD4 inh, PAFAH1B2 inh, LYPLA2 counter, pPAFAH inh, PAFAH1B3 inh, PREPL inh, GSTO1 counter, LYPLA1 inh
- O=C(CN1CCN(Cc2ccccc2)CC1)Nc1ccc([N+](=O)[O-])cc1C(=O)Nc1ccccc1F
    -5.3, 5.6, -0.8, 8.1, -3.4, 43.1*, -4.8, -1.8
- COc1cc(NC(=O)c2ccc(Br)o2)ccc1NC(=O)C(C)C
    -1.3, 0.2, -2.3, 1.0, -2.6, 8.4, -9.8, -0.2
- COC(=O)c1c(NC(NC(=O)CC(C)C)C(Cl)(Cl)Cl)sc2c1CCC2 (stereo not given)
    -2.1, 1.4, -6.4, 6.3, -3.5, -3.9, 3.3, -2.5
- COc1cc2c(cc1OC)C(c1ccccc1OC(C)C)CC(=O)N2 (stereo not given)
    -0.6, 7.1, -3.2, 5.0, -0.6, 0.3, -1.1, -0.9
- COc1cccc(N2CCN(CC(=O)NC3=Nc4ccccc4N=C(C)C3c3ccccc3)CC2)c1 (stereo not given)
    -0.5, ·, 7.9, 9.0, ·, 29.9, 2.5, -3.2
- COc1cccc(CNC(=O)C2CCN(S(=O)(=O)c3ccccc3)CC2)c1
    -3.8, 1.5, 2.7, 10.6, 4.8, 4.5, -1.2, -1.0
- N#C/C(=C\Nc1ccc2c(c1)OCCO2)c1nc2ccccc2[nH]1
    0.0, 9.9, 5.8, 8.6, -0.1, 26.3, 1.4, -0.2
- Cc1ccc(C)c(NS(=O)(=O)c2cc(C(=O)N3CCc4ccccc4C3)ccc2Cl)c1
    -5.1, 6.8, 0.7, 2.4, 6.3, 12.5, -2.1, 0.3
- Cc1ccc(C)c(S(=O)(=O)Nc2ccc3cn[nH]c3c2)c1
    -6.5, 0.8, -2.5, -4.3, 2.0, 13.7, ·, -1.7
- COc1cc(NC(=O)CSCC(=O)Nc2cc(OC)cc(OC)c2)cc(OC)c1
    2.6, ·, 0.0, -5.4, ·, 3.6, 2.9, -2.2
- Cc1cccc(NC(=O)CSc2nc(C)c(Cc3ccccc3)c(=O)[nH]2)c1
    0.1, 6.4, -1.6, 0.1, 11.5, -8.3, -11.4, -1.1
- COc1cc2c(cc1OC)C(c1cccs1)N(C(=S)NC(C)C)CC2 (stereo not given)
    -3.0, 3.0, -6.2, -0.3, -7.4, 4.4, 7.5, -6.2
- CCC(=O)N1c2ccccc2NC2=C(C(=O)CC(c3ccco3)C2)C1c1ccco1 (stereo not given)
    1.1, 2.1, 4.9, 9.5, -4.5, -1.7, 5.4, 0.4
- O=C(Cn1cnc2sc3c(c2c1=O)CCCC3)NCC(=O)Nc1c(F)cc(F)cc1Br
    -6.5, -1.6, 2.4, 1.0, 10.7, -0.1, 1.1, 3.9
- CC1=C(C(=O)Nc2ccccc2)C(c2cccnc2)n2ncnc2N1 (stereo not given)
    3.6, 0.8, 0.7, 6.1, 0.1, 11.2, 2.6, -2.0
- CC1(C)CC(=O)C2=C(C1)OC(N)=C(C#N)C21C(=O)N(Cc2ccccc2Cl)c2ccccc21 (stereo not given)
    5.3, 2.3, -1.8, -0.9, 5.3, 2.1, 4.0, 0.7
- CCCc1nnc(NC(=O)CCC(=O)N2CCN(S(=O)(=O)c3ccc(C)cc3)CC2)s1
    -0.3, 10.2, 7.2, 3.8, 8.2, 5.6, 4.2, -1.2
- O=C1CCCC(O)=C1C1C2=C(CCCC2=O)OC2=C1C(=O)CCC2
    -5.3, 4.8, 0.3, 0.7, 10.8, 10.7, 1.8, 0.7
- Cc1ccccc1NC(=S)N/N=C1\CC(C)(C)Oc2ccc(O)cc21
    -1.0, 2.7, 7.3, 6.5, 9.2, 10.8, -13.6, 0.8
- O=C(c1cc(S(=O)(=O)N2CCOCC2)ccc1F)N(CCc1ccccc1)Cc1ccccc1
    0.5, 4.7, 1.4, 3.5, -0.7, 19.6, -5.8, 2.8

# A different layout for some results above:
> COc1cc(NC(=O)CSCC(=O)Nc2cc(OC)cc(OC)c2)cc(OC)c1
- PAD4 inh: 2.6
- PAFAH1B2 inh: ·
- LYPLA2 counter: 0.0
- pPAFAH inh: -5.4
- PAFAH1B3 inh: ·
- PREPL inh: 3.6
- GSTO1 counter: 2.9
- LYPLA1 inh: -2.2
> CCCc1nnc(NC(=O)CCC(=O)N2CCN(S(=O)(=O)c3ccc(C)cc3)CC2)s1
- PAD4 inh: -0.3
- PAFAH1B2 inh: 10.2
- LYPLA2 counter: 7.2
- pPAFAH inh: 3.8
- PAFAH1B3 inh: 8.2
- PREPL inh: 5.6
- GSTO1 counter: 4.2
- LYPLA1 inh: -1.2

# Next part.
Molecule,PAD4 inh,PAFAH1B2 inh,LYPLA2 counter,pPAFAH inh,PAFAH1B3 inh,PREPL inh,GSTO1 counter,LYPLA1 inh
O=C(/C=C/NNC(=O)c1cccc(Br)c1)c1cccc(Br)c1,-0.4,3.5,-17.7,-6.2,15.4,2.9,-6.7,-11.8
O=C(Cn1cnc2sc3c(c2c1=O)CCCC3)NCC(=O)Nc1c(F)cccc1F,-4.8,6.3,3.2,5.1,-2.6,13.6,7.4,0.7
O=C(c1ccccc1Nc1ccc(SC(F)F)cc1)N1CCCCC1,-1.1,8.4,-0.9,-1.2,6.6,12.4,-1.5,-2.6
COc1cccc(NC(=O)CNCc2ccccc2)c1,0.1,9.0,3.7,2.4,3.0,1.6,0.8,-1.6
O=C(CN1CCC(c2nc3ccccc3s2)CC1)NCc1ccccc1,2.6,6.9,1.1,2.0,-3.9,-17.1,1.1,-3.1
C=CCn1c(C)cc(C(=O)COC(=O)c2ccc(N)c([N+](=O)[O-])c2)c1C,-0.3,3.2,-1.5,6.2,-1.4,-0.5,10.7,-4.4
CCN1CCCC1CNS(=O)(=O)c1ccc(F)c(Cl)c1 (stereo not given),-3.4,4.1,4.5,2.9,5.0,-55.6,-0.5,3.4
O=C(NCCC(=O)N(CCc1ccccc1)Cc1ccccc1)c1ccc(Br)cc1,1.8,4.4,0.6,4.0,-1.5,10.2,6.7,-1.4
COc1ccccc1NS(=O)(=O)c1ccc(C(=O)N2CCCC(C)C2)cc1 (stereo not given),1.4,5.2,6.7,0.9,11.8,0.4,3.6,-0.1
O=C(NCc1ccc(Cl)cc1)C1CCN(S(=O)(=O)c2ccc(N3CCCC3=O)cc2)CC1,0.4,-3.1,13.5,4.6,3.4,4.2,3.2,0.3
CCc1cc2c(NCCC(=O)O)nc(C)nc2s1,-2.7,9.1,8.3,12.6,-3.2,-5.5,-4.3,1.7
CN1CCNC(=O)C1CC(=O)NCCc1ccccc1F (stereo not given),-6.8,0.6,1.0,0.6,8.5,-1.7,0.0,2.9
Cc1ccc2nc(NCc3ccc(F)cc3)c3nncn3c2c1,-3.8,2.6,-4.0,8.5,-1.0,-0.4,11.8,-3.8
O=C(OCC(=O)N1CCCC1=O)c1cc(S(=O)(=O)N2CCOCC2)ccc1F,-0.5,2.3,3.6,1.8,2.4,2.9,7.0,3.1
Cn1nccc1C(=O)NC(=S)Nc1sc2c(c1C#N)CCCCC2,-7.6,7.0,-5.5,-2.5,-3.8,-0.7,-6.5,-3.8
O=C(NCCCn1ccnc1)c1cc(Cl)cc(Cl)c1,-2.2,3.0,-1.1,5.9,-5.8,-1.5,-3.0,-0.2
COc1ccc(OC)c(CN(CCCN2CCOCC2)S(=O)(=O)c2ccc(NC(C)=O)cc2)c1,-4.8,0.6,-3.2,6.7,-0.9,1.3,3.9,-0.1
COC(=O)N1C(=O)[C@](c2ccc(Cl)cc2)(C(C)C)N1C(=O)OC,0.4,-1.2,-2.7,4.5,-1.6,-6.6,3.8,2.6

# With a hit mark in PREPL inh, among the entries above:
structure	PAD4 inh	PAFAH1B2 inh	pPAFAH inh	PAFAH1B3 inh	PREPL inh
O=C(CN1CCN(Cc2ccccc2)CC1)Nc1ccc([N+](=O)[O-])cc1C(=O)Nc1ccccc1F	-5.3	5.6	8.1	-3.4	43.1*

# Bioassay records as filed in PubChem BioAssay.
